# Sa growth 42C – inhibitors of Staphylococcus aureus growth at 42 °C; relative growth, % (no concentration beside the values); S. aureus RN4220 growth, OD600, 20 h; hits give low values; 0.53% of 170,000 active;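 active = growth at 42 °C up to 50% and 20 or more points under that at 30 °C, or under 10% at both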;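 note: 300 nL library stock went into each well; scaled to the means of positive and negative controls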
# GIV Gai3 FP – blocks GIV peptide binding to rat Galpha-i3 | P08753 | Galpha-i3/FITC-GIV peptide fluorescence polarization, 90 min; hits give low values; scaled: aluminum fluoride 0%, vehicle 100% | percent of control (FP), % (test concentration not listed) | 0.42% of 210,000 active | AID 1224905;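 active = replicate mean at 85% of control or lower, very high polarization wells dropped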;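 note: wells of about 15 µL received 100 nL stock; the first replicate is given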
# Target sequence (P08753 whole entry, looked up): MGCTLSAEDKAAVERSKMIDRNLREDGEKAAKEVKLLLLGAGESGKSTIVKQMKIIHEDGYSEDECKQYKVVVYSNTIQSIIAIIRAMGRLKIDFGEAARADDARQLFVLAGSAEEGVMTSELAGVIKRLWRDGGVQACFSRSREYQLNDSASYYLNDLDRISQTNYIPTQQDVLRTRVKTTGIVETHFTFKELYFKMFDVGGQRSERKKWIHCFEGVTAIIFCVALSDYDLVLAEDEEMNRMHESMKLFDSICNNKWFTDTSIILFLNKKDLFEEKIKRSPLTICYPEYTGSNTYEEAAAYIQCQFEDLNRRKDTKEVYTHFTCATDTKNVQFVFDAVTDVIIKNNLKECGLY
# HCMV NEC inh – inhibitors of HCMV UL50-UL53 nuclear egress complex interaction; HTRF UL50-UL53 interaction, normalized percent inhibition; inhibition, % (test concentration not listed); 0.15% of 190,000 active;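 active = both replicates at 50% or more, plus weaker picks with an unusually low signal ratio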;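 note: stock transfer was 100 nL into about 20 µL; 0% = negative control wells and 100% = wells with untagged competitor protein; inactives centre near -12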
# Sa growth 42C second temp – second read-out of Sa growth 42C, no call of its own (marks repeat the call); relative growth, %; measured here: growth at 30 °C;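 optical density after 20 h as mean of two plates; 100% = untreated growth and lower means inhibition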
# An asterisk follows results filed as active; x = not tested or not shown.
# Every second line gives: Sa growth 42C	GIV Gai3 FP	Sa growth 42C second temp	HCMV NEC inh
Cc1nc2cccnc2n1-c1cc(C(=O)NCCC2=CCCCC2)ccc1Cl
    x	112.1	x	-2.2
CCOC(=O)C(C)n1ncn2cccc2c1=O (stereo unspecified)
    116.3	103.5	90.6	x
N#CC1=C(N)n2c(nc3ccccc32)NC1c1ccc(F)cc1 (stereo unspecified)
    82.0	114.4	84.5	-13.2
CCc1ccc(OC(C)C(=O)N2CCC(c3nc4ccccc4s3)CC2)cc1 (stereo unspecified)
    79.0	101.5	37.8	-8.4
Cc1ccccc1COC(=O)CCCC1=NS(=O)(=O)c2ccccc2N1
    97.6	101.6	73.7	x
Cc1ccc2c(c1)c(=O)c(Br)c(C)n2Cc1ccccc1
    93.5	102.5	89.5	-4.6
Cc1ccccc1Cn1c(C)c(CNCCc2ccc(S(N)(=O)=O)cc2)c(C(=O)O)c1C
    x	105.3	x	-27.6
NC(=Nc1ccccc1)SC1CC(=O)N(c2ccccc2)C1=O (stereo unspecified)
    80.6	92.8	94.5	-20.6
COC(=O)c1cc(Cl)c(N)cc1OC
    93.6	98.6	86.5	-12.0
CCOC(=O)c1c(CN(C)C)n(C)c2cc(Br)c(OC)cc12
    114.8	x	96.4	-0.6

# The listing continues.
# Every second line gives: Sa growth 42C	GIV Gai3 FP	Sa growth 42C second temp	HCMV NEC inh
Cc1c(C(=O)OC2CCCC2)[nH]c2c1C(=O)CC(c1ccc(Cl)cc1)C2 (stereo unspecified)
    103.1	105.6	86.6	-6.6
CN(C)c1ccc(-c2nc3cc(NC(=O)c4ccccc4)ccc3o2)cc1
    91.4	106.6	86.7	-12.3
CC(C)(C)NC(=O)CN1C(=O)C2CCCCN2c2ccc(S(=O)(=O)N3CCCCC3)cc21 (stereo unspecified)
    x	102.2	x	16.7
CC(C)NC(=O)CSc1nc(-c2ccc3c(c2)OCO3)nc2cc(=O)[nH]n12
    x	98.0	x	-25.5
Cc1nc(-c2ccc(/C(N)=N/O)s2)cs1
    102.3	108.0	78.2	-46.7
CCOc1ccc(CNC(=O)CCC(=O)N2CC3CCCN3c3ccccc32)cc1 (stereo unspecified)
    97.3	96.7	91.6	x
O=C1OC(c2ccccc2)=N/C1=C1/OC(=O)c2ccccc21
    107.7	x	79.7	-20.0
N#CCC(=O)Nc1cccnc1
    x	104.7	x	-17.6
O=C1OC/C(=C(/O)c2ccccc2)C1=O
    71.8	100.4	89.3	-27.1
O=C(NC1CCCCC1)c1ccc(CN2CCOCC2)cc1
    103.8	103.7	107.4	-6.1

# Two entries from above, as tab-separated lines.
canonical_smiles	Sa growth 42C	GIV Gai3 FP	Sa growth 42C second temp	HCMV NEC inh
CCOc1ccc(CNC(=O)CCC(=O)N2CC3CCCN3c3ccccc32)cc1 (stereo unspecified)	97.3	96.7	91.6	x
O=C1OC(c2ccccc2)=N/C1=C1/OC(=O)c2ccccc21	107.7	x	79.7	-20.0

# The results go on.
# Every second line gives: Sa growth 42C	GIV Gai3 FP	Sa growth 42C second temp	HCMV NEC inh
CCOC(=O)N1CCC(NC(=O)Nc2cc(C)oc2C(F)(F)F)CC1
    92.0	103.2	94.9	-23.8
O=C(O)c1ccc(C#Cc2ccccc2)cc1
    107.2	x	83.4	-25.7
c1ccc(C2=NN3COc4ccccc4C3C2)cc1 (stereo unspecified)
    121.7	108.1	84.7	-11.7
CCCN(Cc1ccc(N(CC)CC)cc1)CC1CC1
    97.0	107.5	99.3	-9.6
O=C(Nc1ccc(F)cc1F)C1CCN(C(=O)c2cccn2-c2cccnc2)CC1
    x	104.0	x	-27.2
Cc1oc(-c2ccccc2F)nc1CS(=O)CC(=O)NC(C)C (stereo unspecified)
    101.3	106.9	89.1	-33.1
CN(C)c1ccc(-c2nc3sc4c(c3c(=O)[nH]2)CCCC4)cc1
    x	183.3	x	23.1
CCn1c(-c2ccc3c(c2)OCCO3)cnc1SCC(=O)c1cc(C)n(-c2ncn[nH]2)c1C
    178.7	x	100.0	5.1
O=C(Nc1cccc(Cl)c1)n1nccc1-c1cc(-c2ccccc2)no1
    94.7	97.5	62.3	6.8
Cc1cc(C)c(S(=O)(=O)n2cnc(C)c2)c(C)c1
    83.0	103.8	90.6	x

# Additional records follow:
# Every second line gives: Sa growth 42C	GIV Gai3 FP	Sa growth 42C second temp	HCMV NEC inh
Cc1cccc(NC(=O)CS(=O)(=O)c2nc(-c3ccccc3)cn2-c2cccc(Cl)c2)c1C
    107.3	104.0	91.0	-6.7
C=C(C)Cn1c(SCC(=O)c2ccc(OC)cc2)nc2sc3c(c2c1=O)CCCC3
    99.8	100.8	103.6	12.0
CN1CCC(N(C)C(C(=O)Nc2ccc(F)cc2)c2ccccc2)CC1 (stereo unspecified)
    85.2	x	96.9	-2.7
CCN(CC)c1ccc(NS(=O)(=O)c2ccc3c(c2)CCCN3C(C)=O)c(C)c1
    95.0	100.3	78.1	x
O=C1CSc2ccc(C(=O)N3CCN(S(=O)(=O)/C=C/c4ccccc4)CC3)cc2N1
    67.0	x	93.8	-27.8
Cc1nc(-c2ccc(N3CCN(C(=O)C(NS(=O)(=O)c4ccccc4)C(C)C)CC3)cc2)no1 (stereo unspecified)
    x	107.5	x	-16.2
CP(=O)(O)C(c1cccc(Cl)c1)C(F)(F)F (stereo unspecified)
    100.3	104.2	85.2	x
O=S(=O)(c1ccccc1)c1nc(-c2cccs2)oc1SCc1ccc(F)cc1
    83.5	103.8	89.0	-6.1
CSc1ncc(C(=O)NCc2ccc(Cl)cc2)c(C(F)(F)F)n1
    103.1	100.4	92.2	x
CC(=O)Nc1ccccc1C(=O)OCC(=O)Nc1nc2ccccc2s1
    102.5	107.0	89.5	8.7

# Whole records, quoted from the list. Order of values: Sa growth 42C, GIV Gai3 FP, Sa growth 42C second temp, HCMV NEC inh
# Cc1nc(-c2ccc(N3CCN(C(=O)C(NS(=O)(=O)c4ccccc4)C(C)C)CC3)cc2)no1 (stereo unspecified) is listed with x, 107.5, x, -16.2
# CC(C)NC(=O)CSc1nc(-c2ccc3c(c2)OCO3)nc2cc(=O)[nH]n12 is listed with x, 98.0, x, -25.5

# The main list resumes, starting six compounds before the break.
# Every second line gives: Sa growth 42C	GIV Gai3 FP	Sa growth 42C second temp	HCMV NEC inh
O=C1CSc2ccc(C(=O)N3CCN(S(=O)(=O)/C=C/c4ccccc4)CC3)cc2N1
    67.0	x	93.8	-27.8
Cc1nc(-c2ccc(N3CCN(C(=O)C(NS(=O)(=O)c4ccccc4)C(C)C)CC3)cc2)no1 (stereo unspecified)
    x	107.5	x	-16.2
CP(=O)(O)C(c1cccc(Cl)c1)C(F)(F)F (stereo unspecified)
    100.3	104.2	85.2	x
O=S(=O)(c1ccccc1)c1nc(-c2cccs2)oc1SCc1ccc(F)cc1
    83.5	103.8	89.0	-6.1
CSc1ncc(C(=O)NCc2ccc(Cl)cc2)c(C(F)(F)F)n1
    103.1	100.4	92.2	x
CC(=O)Nc1ccccc1C(=O)OCC(=O)Nc1nc2ccccc2s1
    102.5	107.0	89.5	8.7
O=C(CSC(=S)N1CCOCC1)N1CCc2ccccc21
    90.8	x	103.3	1.4
Cc1cncc(C(=O)NN)c1
    86.0	105.4	84.8	-33.9
COC(=O)c1ccc2c(c1)C1C=CCC1C(c1cccc3ccccc13)N2 (stereo unspecified)
    x	114.2	x	-24.5
N#C/C(C(N)=O)=C1/CCc2ccccc21
    103.5	99.3	76.8	-63.7
CCOC(=O)c1ccc(NC(=O)c2c(NCc3cccc(OC)c3)sc3c2CCC3)cc1
    97.2	120.2	80.3	x
Cc1cc2cc(CNC(=S)NCCc3ccccc3)ccc2n1C
    92.7	103.7	79.8	x
O=C(CCC(=O)c1cccs1)NCC1CCCO1 (stereo unspecified)
    91.1	x	79.1	-25.6
Cc1c2cnn(-c3ccccc3)c(=O)c2c(C)n1CCCC(=O)N1CCCC1
    88.9	101.7	80.9	0.5
CCCCOc1ccccc1-c1nc(SCC(=O)O)n[nH]1
    82.5	106.8	91.3	-15.8
NC(=O)NNC1=Nc2cccc3cccc1c23
    100.6	x	94.7	-44.3

# Arranged by value in Sa growth 42C (lowest first): 5 from the list above
SMILES | Sa growth 42C
CCCCOc1ccccc1-c1nc(SCC(=O)O)n[nH]1 | 82.5
Cc1cncc(C(=O)NN)c1 | 86.0
O=C(CCC(=O)c1cccs1)NCC1CCCO1 (stereo unspecified) | 91.1
Cc1cc2cc(CNC(=S)NCCc3ccccc3)ccc2n1C | 92.7
CCOC(=O)c1ccc(NC(=O)c2c(NCc3cccc(OC)c3)sc3c2CCC3)cc1 | 97.2

# New compounds follow
# Every second line gives: Sa growth 42C	GIV Gai3 FP	Sa growth 42C second temp	HCMV NEC inh
C=CCc1cccc2cc(C(=O)O)c(=O)oc12
    82.9	109.5	104.0	x
Cc1c(/C=N/O)sc2ccccc12
    131.5	99.6	86.5	-50.4
CCOC(=O)N1CCN(C(=O)CSCC(=O)Nc2nc(-c3cccs3)cs2)CC1
    111.7	98.1	80.2	x
CCC(=O)Oc1ccc(C(=O)CC)cc1OC
    99.1	x	98.2	6.9
Cc1nn2c(=O)cc(CSc3nc(-c4ccccc4)nc4cc(=O)[nH]n34)nc2s1
    x	97.6	x	-8.3
Cc1ccc(C2C3C(=O)N(C)C(=O)C3ON2c2ccccc2)cc1 (stereo unspecified)
    105.5	104.7	105.9	x
O=C(Cn1c(=O)n(-c2ccc(F)c(Cl)c2)c(=O)c2sc3ccccc3c21)NC1CCCCC1
    115.8	104.9	85.3	-31.4
O=Nc1ccc(NNC(=O)c2ccccc2O)cc1
    58.1	100.4	39.9	-12.7
O=C(Nc1cc(C(F)(F)F)ccc1Cl)c1ccc2c(c1)CCN2S(=O)(=O)c1ccccc1
    105.7	106.4	88.9	-2.8
Cn1c(=O)c2cc(S(=O)(=O)N3CCOCC3)ccc2n(C)c1=O
    97.6	100.4	106.4	9.5

# (list continues)
# Every second line gives: Sa growth 42C	GIV Gai3 FP	Sa growth 42C second temp	HCMV NEC inh
COc1ccc(OC)c(CNC(=O)c2cc(S(=O)(=O)N3CCC(C)CC3)cn2C)c1
    88.3	98.5	86.5	x
O=C(CSc1ccc(-c2ccco2)nn1)Nc1ccccc1
    68.3	106.6	86.7	-40.2
COc1ccc(S(N)(=O)=O)cc1C(=O)NCC(c1cccs1)N(C)C (stereo unspecified)
    92.2	x	93.5	11.1
Oc1ccc(-c2[nH]ncc2-c2ccc(Cl)cc2)c(O)c1
    59.6	102.9	12.7	-19.5
COc1ccc(-c2cc(=O)[nH]c(SCc3nc(-c4ccc(OC)cc4OC)oc3C)n2)cc1
    x	112.0	x	-22.8
CC1(C)CNC(=O)c2sc(N3CCCCC3)nc2C1
    84.8	x	105.5	17.3
COc1ccc(-c2nc(Cn3c(=O)cc(C)c4c(C)nn(-c5ccccc5)c43)c(C)o2)c(OC)c1
    79.0	95.5	82.0	x
COc1ccc(C2=NN(C(=O)CSC3=NN4CCCC(=O)N=C4S3)C(c3ccc(OC)cc3)C2)cc1 (stereo unspecified)
    x	102.2	x	-7.1
CCC1CSc2nc3ccsc3c(=O)n21 (stereo unspecified)
    88.6	101.7	84.7	-3.6
CC1CCCCN1S(=O)(=O)c1ccccc1C(=O)O (stereo unspecified)
    125.1	x	101.6	11.9

# Later entries.
# Every second line gives: Sa growth 42C	GIV Gai3 FP	Sa growth 42C second temp	HCMV NEC inh
COc1ccccc1N1C(=O)NC(=O)/C(=C\c2cc(OC)c(O)c(OC)c2)C1=O
    x	117.1	x	-7.9
CC1CCCN(CCCNC(=O)c2cc3c(Cl)nc4ccccc4c3s2)C1 (stereo unspecified)
    106.9	106.1	85.5	-41.0
Cc1c(N=CN(C)C)c(=O)n(-c2ccccc2)n1C
    83.5	x	97.0	-11.8
CCC(CC)NS(=O)(=O)c1cccc(C(=O)NCCOc2ccccc2)c1
    92.4	x	83.5	-9.3
COc1ccc2[nH]c3c(c2c1)CCN(C(=O)c1cc(CC(C)C)on1)C3c1ccc(F)cc1 (stereo unspecified)
    x	100.8	x	-35.7
CC(=O)c1cccc(NC(c2ccc(F)cc2)c2nnc(-c3ccccc3)o2)c1 (stereo unspecified)
    76.2	96.1	89.9	x
Cc1ccc(C(=O)N(C)Cc2ccccc2)c(Cl)c1
    91.4	106.0	99.2	-9.1
O=S(=O)(NCC(Nc1ccc(Cl)cc1)c1ccccc1)c1ccccc1 (stereo unspecified)
    88.0	107.5	72.4	-19.7
O=C(O)C1C2C=CC3(CN(CCc4ccccc4)C(=O)C13)O2 (stereo unspecified)
    110.5	103.8	82.7	x
CC1Cc2ccccc2N1C(=O)CSc1cccc[n+]1[O-] (stereo unspecified)
    96.9	x	92.8	-22.7

# Additional entries follow:
# Every second line gives: Sa growth 42C	GIV Gai3 FP	Sa growth 42C second temp	HCMV NEC inh
CC(C)NCC(=O)Nc1ccc(S(N)(=O)=O)cc1
    96.8	x	95.5	-22.6
O=C(Nc1ccc(F)cc1F)C1CCN(S(=O)(=O)c2ccc3[nH]c(=O)ccc3c2)CC1
    125.3	105.9	81.0	x
COc1ccc(C2=NC(c3ccncc3)=Nc3ccc(Br)cc3N2)cc1
    92.8	100.5	92.3	0.9
O=S(=O)(c1ccccc1)c1ccc(O)cc1
    111.6	x	86.2	-31.5
